# GALR2 agonist: agonists of human galanin receptor 2 (GALR2); O43603; AID 803; hit rate 0.48% among 140,000; GALR2-expressing cells, agonist activation read-out; activation, %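 (tested at 5 µM)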;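 active = above mean plus 3 SD of all compounds, about 5% in these data, not always enough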;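 note: 0% = vehicle buffer wells and 100% = reference agonist at full effect; tested in CHO reporter cells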
# Target sequence (O43603 whole entry, looked up): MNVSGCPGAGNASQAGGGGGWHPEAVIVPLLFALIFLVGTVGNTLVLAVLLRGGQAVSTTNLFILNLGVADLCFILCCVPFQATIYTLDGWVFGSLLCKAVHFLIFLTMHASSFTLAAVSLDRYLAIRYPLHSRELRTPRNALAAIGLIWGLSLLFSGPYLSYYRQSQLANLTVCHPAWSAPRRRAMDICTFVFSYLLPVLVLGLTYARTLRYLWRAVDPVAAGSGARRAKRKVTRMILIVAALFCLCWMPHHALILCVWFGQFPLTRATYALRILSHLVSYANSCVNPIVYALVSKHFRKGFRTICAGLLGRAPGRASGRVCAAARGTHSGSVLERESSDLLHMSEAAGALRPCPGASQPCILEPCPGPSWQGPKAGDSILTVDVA
# RGS16-Gao HTS: regulators of human RGS16-Galphao interaction. hit rate 0.38% among 220,000. bead-based flow cytometry RGS16-Galphao binding, fluorescence; actives lie on both sides. AID 1441. O15492+P09471. binding response (% of control), % at 10 µM;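 active = below 25% or above 175%, edge rows of some plates excepted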;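 note: Galphao activated by GDP with aluminum fluoride before binding; 100% = wells without compound and 0% = beads without RGS; some results beyond the cut were filed as inactive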
# Target sequence (O15492 whole entry, looked up): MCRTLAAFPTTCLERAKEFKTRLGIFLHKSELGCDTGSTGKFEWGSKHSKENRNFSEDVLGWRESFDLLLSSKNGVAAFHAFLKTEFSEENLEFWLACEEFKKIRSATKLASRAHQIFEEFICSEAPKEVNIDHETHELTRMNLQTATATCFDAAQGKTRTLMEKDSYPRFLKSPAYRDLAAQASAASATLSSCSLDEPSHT
# Target sequence (P09471 whole entry, looked up): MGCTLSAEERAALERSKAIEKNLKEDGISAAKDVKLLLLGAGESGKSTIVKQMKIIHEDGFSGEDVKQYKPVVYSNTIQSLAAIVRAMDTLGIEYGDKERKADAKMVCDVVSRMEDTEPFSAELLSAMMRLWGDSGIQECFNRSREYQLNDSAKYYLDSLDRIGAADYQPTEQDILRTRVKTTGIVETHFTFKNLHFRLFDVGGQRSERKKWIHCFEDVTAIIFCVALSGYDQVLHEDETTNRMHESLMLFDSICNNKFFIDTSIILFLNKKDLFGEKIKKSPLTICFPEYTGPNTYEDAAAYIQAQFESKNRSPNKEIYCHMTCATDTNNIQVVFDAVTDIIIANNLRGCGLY
# HSV augment: HSV replication enhancement; AID 1956; hit rate 0.005% among 220,000; HSV replication augmentation in cells, fold increase; maximum fold increase;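 active = peak rise of 1.5-fold or more in the series; tested in PC3 cells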;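 note: first round at 10 µM; read as green reporter fluorescence; hits show the peak of a series up to 25 µM; 1 = signal of infected wells without compound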
# Insulin prom inh: TRM-6 insulin promoter activity inhibition; TRM-6 cells (human fetal islet line), insulin promoter-eGFP reporter, imaging; reporter expression induced with tamoxifen; inhibition, % at 2 µM; hit rate 0.9% among 130,000; AID 1273;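 active = inhibition above the mean plus 3 SD, with well images judged a real hit on visual review, cut at about 60% in these data, passing the limit was not always enough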
# PKD1 kinase inh: blocks activity of human protein kinase D1. Q15139. PKD1 kinase fluorescence polarization assay. inhibition, %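 (about 10 µM by stock and volumes)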. hit rate 0.056% among 200,000. AID 797;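 active = inhibition of 50% or more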;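 note: controls were vehicle for no effect and a reference inhibitor for full effect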
# Insulin prom inh cell count: recorded beside Insulin prom inh, whose call it bears; normalized cell count, %; measured here: cell count, toxicity; reference of the scale not given here;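 cells exposed to compound for 48 h; stained nuclei by imaging scaled within each plate; lower means fewer cells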
# HSV augment primary fold: also measured in HSV augment; calls as there; fold increase; compound at 10 µM; measured here: primary screen fold increase 10 uM; tested in PC3 cells;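 GFP signal in the first replicate; 1 = infected wells without compound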
# * = called active by the depositor; i = inactive; x = not tested or not shown.
item | mol | RGS16-Gao HTS | GALR2 agonist | PKD1 kinase inh | Insulin prom inh cell count | Insulin prom inh | HSV augment | HSV augment primary fold
1 | Cc1c(NC(C)c2cc(Cl)ccc2O)c(=O)n(-c2ccccc2)n1C (configuration not stated) | 104.4 | 0.2 | -2.0 | 158.1 | -8.6 | i | 1.14
2 | COC(=O)c1c(NS(=O)(=O)c2cccs2)sc2c1CCCC2 | 82.0 | -0.9 | -5.7 | 138.2 | 66.7 | i | 1.12
3 | O=C1c2ccccc2C(=O)C1c1ccccc1 | 114.1 | -1.5 | -11.7 | 50.6 | 22.7 | i | 1.12
4 | CCCCN(C)CC(O)Cn1cc(/C=C/C(=O)c2cccs2)c2ccccc21 (configuration not stated) | 95.2 | 1.2 | -2.7 | 92.2 | -230.0 | i | 1.04
5 | CC(C)COc1ccc(C(=O)N(Cc2ccco2)C2CCS(=O)(=O)C2)cc1 (configuration not stated) | 110.6 | -1.5 | 2.0 | x | x | i | 0.86
6 | Brc1cccc(-c2nnc3sc(CNC4CCCC4)cn23)c1 | 100.9 | -4.0 | 1.4 | x | x | i | 0.89
7 | CC1C(=O)CC(c2ccco2)NC1c1ccco1 (configuration not stated) | 105.5 | -1.4 | -5.8 | 115.6 | -4.3 | i | 1.06
8 | COc1ccccc1-c1n[nH]c(=S)o1 | 97.3 | -2.3 | 0.2 | 58.3 | 0.0 | i | 1.04
9 | CCOc1ccc(/C=N/NC(=O)C2(O)c3ccccc3-c3ccccc32)cc1 | 105.6 | -1.6 | -1.5 | 125.1 | -64.3 | i | 0.97
10 | Cc1cc(-c2nnc3n2N=C(c2ccc(-c4ccccc4)cc2)CS3)n[nH]1 | 100.2 | 2.2 | 4.5 | x | x | i | 0.72
11 | Cc1ccc(CNC(=O)c2ccc3c(=O)c(O)c(-c4ccc(C)cc4)[nH]c3c2)cc1 | 99.9 | x | x | x | x | i | 0.88
12 | Cc1ccc(C(=O)O/N=C(\N)c2cccc([N+](=O)[O-])c2)cc1 | 99.3 | -2.0 | 6.0 | 92.0 | -10.0 | i | 1.11
13 | COC(=O)c1c(CSc2cccc(C)c2)noc1C(=O)NCc1ccco1 | 98.3 | 1.0 | 8.3 | 45.6 | -11.1 | i | 0.91
14 | CC(C)c1nnc(NC(=O)C2c3ccccc3Oc3ccccc32)s1 | 99.1 | 0.1 | 11.9 | 85.5 | -10.7 | i | 0.88
15 | CCN1CCN(CCCOc2ccc(Cl)cc2Br)CC1 | 101.2 | x | -0.5 | x | x | i | 0.96
16 | O=C(OCC(=O)N1CCCCC1)c1cc(NS(=O)(=O)c2ccc(Cl)c([N+](=O)[O-])c2)ccc1O | 99.3 | -0.7 | 1.0 | 140.9 | -23.5 | i | 0.91
17 | COC(=O)Nc1ccc(S(=O)(=O)N2c3ccccc3CCC2C)cc1 (configuration not stated) | 96.1 | -1.0 | -6.1 | x | x | i | 0.66
18 | O=C(CSc1nnnn1-c1ccccc1)N1CCCc2ccccc21 | 106.3 | -2.7 | -1.5 | 127.8 | -12.5 | i | 0.96
19 | O=C(CSc1nnc(-c2ccncc2)n1Cc1ccco1)Nc1nc(-c2ccccc2)cs1 | 97.4 | -3.0 | 4.5 | 97.5 | -10.8 | i | 0.96
20 | COc1ccc(C(CCNCc2ccc(OC(C)C)cc2)C(C)C)cc1 (configuration not stated) | -5.3* | x | x | x | x | i | 0.76
21 | COc1ccc(C2=NN(S(=O)(=O)c3ccccc3)C(c3ccccc3)C2)cc1 (configuration not stated) | 104.4 | x | x | x | x | i | 1.09
22 | O=C(Nc1ccc(Cl)cc1)C1CC(=O)n2c(nc3ccccc32)N1 (configuration not stated) | 112.1 | x | -5.2 | 86.4 | -36.4 | i | 0.88
23 | CCOC(=O)c1c(C2COc3ccccc3O2)csc1NC(=O)c1ccco1 (configuration not stated) | 46.3 | 0.1 | 3.4 | 127.6 | 40.5 | i | 0.73
24 | CC(Sc1ccsc1[N+](=O)[O-])C(=O)N1CCN(c2ccccn2)CC1 (configuration not stated) | 114.4 | x | -5.2 | 40.7 | -45.0 | i | 0.98
25 | O=C(CCS(=O)(=O)Cc1ccccc1)N1CCN(c2ccccc2)CC1 | 102.9 | -1.9 | 0.5 | 106.1 | 20.0 | i | 1.04
26 | COc1ccc(CCNS(=O)(=O)c2cccc3cccnc23)cc1OC | 98.4 | x | x | x | x | i | 0.98
27 | CCOc1ccc(-n2cc(-c3ccccc3)c3c(SC(C)C(=O)OC)ncnc32)cc1 (configuration not stated) | 102.0 | -0.8 | 2.1 | x | x | i | 0.96
28 | O=C(COc1ccccc1)N1CCN=C1SCc1ccccc1 | 107.4 | x | 4.4 | 93.2 | -22.2 | i | 0.85
29 | CC1Cc2ccccc2N1CC(=O)Nc1ccc2c(c1)OC(F)(F)O2 (configuration not stated) | 109.5 | -1.0 | -10.2 | 113.0 | 4.2 | i | 0.8
30 | O=C(COC(=O)C12CC3CC(CC(Br)(C3)C1)C2)N1CCOCC1 | 99.1 | x | -4.3 | x | x | i | 1.05
31 | Cc1ccc(Cn2c(SCCN3CCCCC3)nc3c2c(=O)n(C)c(=O)n3C)cc1 | 99.0 | -0.1 | -7.0 | 76.8 | 42.9 | i | 0.75
32 | CCN(CC)Cc1csc(C(N)=O)c1 | 105.6 | -2.1 | -12.7 | 140.6 | 9.5 | i | 1
33 | CCOc1ccccc1NC(=O)CCc1ccc(C)o1 | 108.8 | -0.8 | -4.8 | 181.6 | 18.9 | i | 0.9
34 | O=C(COC(=O)CCc1ccccc1)NC12CC3CC(CC(C3)C1)C2 | 102.8 | x | -1.1 | 109.7 | 11.8 | i | 1.11
35 | CCCn1c(N2CCC(Cc3ccccc3)CC2)nc2c1c(=O)[nH]c(=O)n2C | 99.2 | 1.6 | 4.7 | 84.7 | -92.9 | i | 0.98
36 | CCN(CC)S(=O)(=O)c1ccc(C(=O)/C=C/c2ccc(-c3ccc([N+](=O)[O-])cc3)o2)cc1 | 97.3 | x | x | x | x | i | 0.97
37 | O=C(N/N=C\C=C\c1ccco1)c1cncc(Br)c1 | 98.1 | x | x | x | x | i | 1.04
38 | N/C(=N\N=C\c1ccco1)SC1CC(=O)N(c2ccccc2)C1=O (configuration not stated) | 103.9 | x | 3.8 | x | x | i | 0.96
39 | COC(=O)c1sc(S(=O)(=O)NCc2ccccc2)c(C(=O)OC)c1C | 106.8 | -1.6 | -3.0 | 104.9 | -8.1 | i | 1.12
40 | O=C(NCCCn1ccnc1)C1c2ccccc2Oc2ccccc21 | 126.8 | -2.7 | -4.9 | x | x | i | 0.86
41 | Cc1cc(C)c2c(N)c(C(=O)NCC3CCCCC3)sc2n1 | 104.3 | 27.8* | 2.4 | 86.7 | -28.1 | i | 0.81
42 | CCn1ccc(C(=O)Nc2cccc(Cl)c2)n1 | 99.9 | x | 3.2 | 117.6 | -15.8 | i | 0.98
43 | CCOc1ccc(N2C(=O)CC(SCc3nc4ccccc4[nH]3)C2=O)cc1 (configuration not stated) | 103.8 | x | 11.8 | x | x | i | 1.06
44 | CCOc1ccc2nc(NC(=O)C3CCN(c4cnccn4)CC3)sc2c1 | 106.4 | 1.7 | 0.5 | x | x | i | 0.8
45 | O=C(c1cc2cc(Cl)ccc2oc1=O)N1CCOCC1 | 108.7 | -0.3 | -7.8 | 37.8 | -314.3 | i | 0.92
46 | Cc1cc(=O)[nH]c(/N=C(\N)Nc2cccc3ccccc23)n1 | 88.1 | -0.4 | -0.8 | x | x | i | 1.08
47 | C/C(N)=C(/C#N)C(=O)CSc1nc2cc(Cl)ccc2s1 | 96.9 | -1.2 | 4.4 | x | x | i | 1.02
48 | Nc1cc(=O)[nH]c(=O)n1-c1cccc(F)c1 | 98.7 | x | -3.5 | x | x | i | 1.01
49 | Cc1nn(-c2ccccc2)c(Cl)c1/C=N/NC(=O)CNc1n[nH]c(=O)[nH]c1=O | 108.9 | x | 7.3 | 108.6 | 16.7 | i | 0.9
50 | COC(=O)c1ccccc1NC(=O)C(CCS(C)(=O)=O)NC(C)=O (configuration not stated) | 106.5 | -0.1 | -11.8 | 146.8 | 0.0 | i | 0.87

# New compounds follow
item | mol | RGS16-Gao HTS | GALR2 agonist | PKD1 kinase inh | Insulin prom inh cell count | Insulin prom inh | HSV augment | HSV augment primary fold
51 | COCc1cc(=O)[nH]c(/N=C(\N)Nc2c(F)cccc2F)n1 | 103.9 | x | x | x | x | i | 1.08
52 | COC(=O)c1ccc2c(=O)n(Cc3ccc(C(=O)NC4CCCC4)cc3)c(=S)[nH]c2c1 | 97.3 | -1.1 | 1.8 | 111.7 | -14.3 | i | 0.92
53 | COc1cccc(/C=N/c2oc(-c3ccccc3)cc2C#N)c1O | 107.7 | -0.9 | 5.4 | 79.6 | 0.0 | i | 1.09
54 | CCOc1ccccc1NC(=S)N1CCC(c2nc3ccccc3o2)CC1 | 105.5 | 0.5 | -2.0 | x | x | i | 0.93
55 | NS(=O)(=O)c1ccc(N/C=C\C(=O)c2ccc(F)cc2)cc1 | 103.1 | x | -2.3 | x | x | i | 0.84
56 | COCC(=O)N(Cc1cc2ccccc2[nH]c1=O)c1ccccc1OC | 108.6 | -0.5 | -6.6 | x | x | i | 0.88
57 | COc1ccc(C(=O)c2oc3ccc(OC)cc3c2N)cc1 | 102.6 | 4.0 | -7.9 | 147.3 | -20.0 | i | 1.04
58 | COc1ccc(CN(CCCN2CCOCC2)C(=O)Nc2ccccc2)cc1OC | 87.0 | -2.4 | -2.7 | x | x | i | 1.04
59 | CCc1ccc(NC(=O)C(=O)NNC(=O)COc2cccc(OC)c2)cc1 | 106.3 | -3.2 | -2.8 | 119.1 | 15.4 | i | 0.94
60 | COc1cc(C2c3c(oc4cc(C)c(C)cc4c3=O)C(=O)N2c2cc(C)ccn2)ccc1O (configuration not stated) | 92.9 | 0.5 | 8.3 | 108.2 | 29.0 | i | 0.81
61 | N/C(=N\OC(=O)c1cccc(Br)c1)c1ccncc1 | 100.7 | x | -3.9 | x | x | i | 1.01
62 | O=C(COC(=O)c1ccc(S(=O)(=O)NCc2ccco2)cc1)c1ccccc1 | 106.4 | -0.9 | -2.1 | 138.9 | -142.9 | i | 1.01
63 | CCOC(=O)c1c(-c2cccs2)csc1NC(=O)CCCC(=O)O | 104.5 | -0.7 | 7.7 | 68.5 | 46.1 | i | 1.15
64 | CCC(=O)OCC(=O)Nc1ncc(C(F)(F)F)cc1Cl | 91.0 | x | x | x | x | i | 0.99
65 | CC(N=c1ccccn1C(=O)Nc1cccc(C(F)(F)F)c1)c1ccco1 (configuration not stated) | 98.2 | 0.3 | 3.5 | 83.8 | -14.3 | x | x
66 | COCCSc1ccccc1C(=O)Nc1nncs1 | 102.8 | -2.0 | 0.2 | 59.7 | 31.6 | i | 0.98
67 | CC(C)(C)c1ccc(OCC(O)CSc2ncn[nH]2)cc1 (configuration not stated) | 103.0 | -1.0 | -5.0 | 108.2 | -33.3 | i | 0.74
68 | COc1ccc(C(C(=O)NCCC(C)C)N(CCN2CCOCC2)C(=O)Cn2nnc3ccccc32)c(OC)c1 (configuration not stated) | 111.7 | x | -2.4 | x | x | i | 0.86
69 | CS(=O)(=O)c1ccc(Cl)c(NC(=O)CCc2ccccc2)c1 | 106.9 | x | 3.2 | 110.6 | -9.1 | i | 0.92
70 | Cc1cc(C)n(-c2nc3ccccc3nc2N2CCOCC2)n1 | 97.3 | -0.7 | 1.6 | 63.3 | -15.0 | x | x

# An excerpt from above in order of SMILES length, smallest number first:
item | mol | RGS16-Gao HTS | GALR2 agonist | PKD1 kinase inh | Insulin prom inh cell count | Insulin prom inh | HSV augment | HSV augment primary fold
66 | COCCSc1ccccc1C(=O)Nc1nncs1 | 102.8 | -2.0 | 0.2 | 59.7 | 31.6 | i | 0.98
60 | COc1cc(C2c3c(oc4cc(C)c(C)cc4c3=O)C(=O)N2c2cc(C)ccn2)ccc1O (configuration not stated) | 92.9 | 0.5 | 8.3 | 108.2 | 29.0 | i | 0.81
68 | COc1ccc(C(C(=O)NCCC(C)C)N(CCN2CCOCC2)C(=O)Cn2nnc3ccccc32)c(OC)c1 (configuration not stated) | 111.7 | x | -2.4 | x | x | i | 0.86

# In the list so far, 5 contain bromine:
item | mol | RGS16-Gao HTS | GALR2 agonist | PKD1 kinase inh | Insulin prom inh cell count | Insulin prom inh | HSV augment | HSV augment primary fold
6 | Brc1cccc(-c2nnc3sc(CNC4CCCC4)cn23)c1 | 100.9 | -4.0 | 1.4 | x | x | i | 0.89
15 | CCN1CCN(CCCOc2ccc(Cl)cc2Br)CC1 | 101.2 | x | -0.5 | x | x | i | 0.96
30 | O=C(COC(=O)C12CC3CC(CC(Br)(C3)C1)C2)N1CCOCC1 | 99.1 | x | -4.3 | x | x | i | 1.05
37 | O=C(N/N=C\C=C\c1ccco1)c1cncc(Br)c1 | 98.1 | x | x | x | x | i | 1.04
61 | N/C(=N\OC(=O)c1cccc(Br)c1)c1ccncc1 | 100.7 | x | -3.9 | x | x | i | 1.01

# High-throughput results as filed in PubChem.
